Screening results deposited in PubChem BioAssay by National Center for Advancing Translational Sciences (NCATS).
Rango dissoc inh: inhibitors of RanGTP-induced Rango-importin beta complex dissociation. O95149+P62826. Biochemical FRET Rango-importin beta, RanGTP-induced dissociation. Potency, µM (top dose mostly 46.1 µM), for inactives: top-dose activity change, negative = inhibition. 0.071% of 340,000 active. AID 540253; active means falling FRET ratio curve, often poorly fitted, with flat reads before Ran was added; inconclusive means other falling curves, or compound fluorescence or quenching; inactive means flat or rising ratio curve;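 note: potency is the fitted concentration of half-maximal effect; % of control where 0% means no effect; nearly all actives have a fitted effect of over 45% in size; -100% = wells without RanGTP and RCC1; the record marks most hits as doubtful in a second field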
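Quantitative HTS using a FRET biosensor: 0.1 uM Rango, 0.25 uM importin beta, 0.6 uM Ran, 2 mM GTP, 0.2 uM RCC1 final, PBS with DTT, Tween-20 and BSA. Post-read taken 45 min after Ran addition.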
GLA inh pH 4.5: blocks human alpha-galactosidase A at pH 4.5; AID 1467; P06280; purified enzyme, 4-MU-alpha-Gal fluorescence, pH 4.5; 230,000 tested, under 10 active; activity change, negative = inhibition, % at 105 µM; inconclusive = small, poorly fitted or top-dose-only inhibition, or a rising curve; inactive = flat fitted curve, though single readings scatter; no compound was filed as active;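 note: 0% = full activity with enzyme and -100% = basal without enzyme; dose as in the result columns while the protocol names 77 µM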
miR-21 reporter: miR-21 reporter, rising signal. AID 2288. Potency, µM (doses to about 38.3 µM), inactives show top-dose reporter change, positive = more light. 340,000 tested, under 10 active. HeLa miR-21 FLuc reporter, luciferase, 48 h; active = well fitted rising curve with a large enough effect; inconclusive = small, poorly fitted or top-dose-only effect; inactive = no such curve, though single readings can be large or run the other way;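 note: % of control where 0% means no effect; miR-21 action dims this reporter so a rising signal means less miR-21 action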
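HeLa cells endogenously expressing miR-21, stably carrying CMV-driven firefly luciferase with a downstream miR-21 binding site, 2000 cells/well. Titrations up to approximately 40 uM, 48 hours; luciferase luminescence read.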
Rango complex inh: prevents formation of the Rango-importin beta complex. Rango CFP/YFP FRET sensor + importin beta, 45 min. Potency, µM (highest dose often 92.2 µM), without a hit: at the top dose inhibition of complex formation. 0.031% of 340,000 active. AID 540263; active = rising FRET ratio curve, often small or poorly fitted; inconclusive = mostly compound fluorescence or quenching in the first reads; inactive = flat curves in all reads;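 note: potency is the fitted concentration of half-maximal effect; 0% = DMSO wells and 100% = buffer wells lacking importin beta; nearly all actives have a fitted effect of over 15% in size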
Target sequence (Q14974 whole entry, looked up): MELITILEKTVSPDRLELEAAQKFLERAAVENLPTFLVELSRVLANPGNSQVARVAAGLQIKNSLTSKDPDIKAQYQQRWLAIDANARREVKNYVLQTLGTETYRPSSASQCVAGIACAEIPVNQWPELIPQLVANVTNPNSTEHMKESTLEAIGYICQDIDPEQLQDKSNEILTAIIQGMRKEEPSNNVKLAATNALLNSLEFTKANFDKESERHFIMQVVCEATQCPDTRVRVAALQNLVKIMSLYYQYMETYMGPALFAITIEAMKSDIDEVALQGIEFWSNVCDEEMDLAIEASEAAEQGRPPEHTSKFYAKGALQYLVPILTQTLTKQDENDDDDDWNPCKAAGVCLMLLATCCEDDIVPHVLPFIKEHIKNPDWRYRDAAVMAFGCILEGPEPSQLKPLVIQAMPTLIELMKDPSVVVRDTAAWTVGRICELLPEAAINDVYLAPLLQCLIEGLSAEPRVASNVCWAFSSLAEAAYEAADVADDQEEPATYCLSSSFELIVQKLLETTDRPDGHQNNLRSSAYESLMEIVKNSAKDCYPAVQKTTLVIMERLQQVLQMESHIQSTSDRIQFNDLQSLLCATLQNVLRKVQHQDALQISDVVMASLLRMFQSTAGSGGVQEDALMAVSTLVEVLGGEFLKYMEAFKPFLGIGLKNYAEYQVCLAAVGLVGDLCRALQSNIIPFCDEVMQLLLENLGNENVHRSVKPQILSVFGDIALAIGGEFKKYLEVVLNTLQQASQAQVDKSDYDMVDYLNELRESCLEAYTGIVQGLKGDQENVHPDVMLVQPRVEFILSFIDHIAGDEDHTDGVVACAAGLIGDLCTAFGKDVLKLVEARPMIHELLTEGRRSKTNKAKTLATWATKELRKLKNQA
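FRET biosensor Rango (snurportin 1 IBB between N-terminal EYFP and C-terminal Cerulean), 50 nM in PBS/1 mM DTT/0.02% Tween-20/0.1% BSA, preincubated 5 min RT with compound; 0.125 microM importin beta added, 45 min RT, CFP/YFP FRET ratio read.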
The depositor's hits bear a star; [ ] = dose if it differs, or a comment.

Results for Cc1cccc(C(=O)Nc2ccc(N3CCN(C(=O)c4ccco4)CC3)cc2)c1 ?
Rango dissoc inh: 16.2%; miR-21 reporter: 7.2%; Rango complex inh: 0.8%

Results for Cc1ccc(C)c(N(CC(=O)NCc2ccco2)C(=O)CNS(=O)(=O)c2ccccc2)c1 ?
Rango dissoc inh: 11.5%; miR-21 reporter: -0.9%; Rango complex inh: -3.0%

How did COc1cc(NC(=O)c2cncc(-c3ccc(C#N)cc3)c2)cc(C(=O)Nc2cccc(C(F)(F)F)c2)c1 do in these assays?
Rango dissoc inh: 1.7%; GLA inh pH 4.5: -3.7; miR-21 reporter: 2.4%; Rango complex inh: -3.8%

What do the screens show for `C#CC(C)(CC)NC(=O)c1cc2nc(C3CC3)cc(C(F)(F)F)n2n1` (stereo not drawn)?
Rango dissoc inh: 1.3%; GLA inh pH 4.5: -5.3; miR-21 reporter: -40.2%; Rango complex inh: -0.1%

How did CCOCCCNC(=O)CSc1ccccc1 do in these assays?
Rango dissoc inh: -5.0%; GLA inh pH 4.5: 0.4; miR-21 reporter: -4.2%; Rango complex inh: 1.0%

Results for Cc1ccccc1/C=C/C(=O)NCC(=O)N1CCC(N(C)C2CCCCC2C)CC1 (stereo not drawn) ?
Rango dissoc inh: -15.6%; GLA inh pH 4.5: -22.0; miR-21 reporter: -0.2%; Rango complex inh: 0.9%

How did COC(=O)CNC(=O)C1CC(=O)N(CCc2ccc(F)cc2)C1 (stereo not drawn) do in these assays?
Rango dissoc inh: -3.4%; miR-21 reporter: -1.3%; Rango complex inh: -0.2%

What do the screens show for `Cc1ccc(-c2nn(-c3ccccc3)cc2/C=C(\C#N)c2cccc(C#N)c2)o1`?
Rango dissoc inh: -8.4%; GLA inh pH 4.5: -6.4; miR-21 reporter: -0.5%; Rango complex inh: -0.7%

How did COc1ccc(-c2[nH]ncc2CN(CC2CCC(=O)N2)C(C)C)cc1F (stereo not drawn) do in these assays?
Rango dissoc inh: -3.0%; GLA inh pH 4.5: 1.2; miR-21 reporter: -10.9%; Rango complex inh: 6.5%

How did COc1cc2oc(=O)cc(C)c2c(OC)c1OC do in these assays?
Rango dissoc inh: -22.8%; GLA inh pH 4.5: 1.4; miR-21 reporter: -2.0%; Rango complex inh: -3.5%

What do the screens show for `CCOc1ccc(C(=O)OCC(=O)N(Cc2ccccc2)Cc2ccccc2)cc1OC`?
Rango dissoc inh: 2.7%; Rango complex inh: -1.7%

What do the screens show for `CC(C)Oc1ccc(C(=O)Nc2ccc(N3CCN(C(=O)c4ccco4)CC3)cc2)cc1`?
Rango dissoc inh: -5.4%; miR-21 reporter: 14.9%; Rango complex inh: -0.5%

What do the screens show for `Cc1cccc(N2CCN(C(=O)c3ccc(Cl)c(NC4=NC5CS(=O)(=O)CC5S4)c3)CC2C)c1` (stereo not drawn)?
Rango dissoc inh: -11.2%; miR-21 reporter: 10.9%; Rango complex inh: 1.7%

How did CSCC[C@H](NC(=O)N1CCn2c1nc1ccccc12)C(=O)N[C@H](Cc1ccccc1)C(=O)O do in these assays?
Rango dissoc inh: 1.9%; miR-21 reporter: -0.6%; Rango complex inh: 0.4%

How did COc1ccc(Nc2ccc(N3C(=O)CC(C)C3=O)cc2[N+](=O)[O-])cc1OC (stereo not drawn) do in these assays?
Rango dissoc inh: -5.8%; GLA inh pH 4.5: -29.1[21.1 µM]; miR-21 reporter: -1.9%; Rango complex inh: -0.1%

What do the screens show for `COc1ccc(CC(=O)O/N=C(\N)c2ccccc2)cc1OC`?
Rango dissoc inh: -8.4%; miR-21 reporter: -27.7%; Rango complex inh: 0.4%

How did O=C(NCc1ccco1)Nc1cccs1 do in these assays?
Rango dissoc inh: -20.7%; GLA inh pH 4.5: -16.9; miR-21 reporter: 2.1%; Rango complex inh: inconclusive

What do the screens show for `COC(=O)c1ccc(CSc2nnc3nc(C)cc(C)n23)cc1`?
Rango dissoc inh: -7.5%; GLA inh pH 4.5: 4.8; miR-21 reporter: -17.2%; Rango complex inh: 0.6%

What do the screens show for `COc1ccc(-c2sc3cc4c(cc3c2-c2ccc(OCCN3CCCCC3)cc2)OCO4)cc1`?
Rango dissoc inh: 6.9%; Rango complex inh: 0.7%

What do the screens show for `CCc1ccc2oc(-c3ccc(NC(C)=O)cc3)nc2c1`?
Rango dissoc inh: -8.7%; miR-21 reporter: -56.0%; Rango complex inh: -0.7%

How did O=C(NCc1cccnc1)c1cccs1 do in these assays?
Rango dissoc inh: -8.6%; GLA inh pH 4.5: 4.7; miR-21 reporter: 2.3%; Rango complex inh: -0.1%

Results for COc1ccc(CN2CNc3c(c(=O)n(C)c(=O)n3C)C2)cc1 ?
Rango dissoc inh: 15.3%; GLA inh pH 4.5: 1.4; miR-21 reporter: -1.0%; Rango complex inh: 4.0%

How did CN(C(=O)COC(=O)CCc1nc2ccccc2c(=O)[nH]1)C1CCS(=O)(=O)C1 (stereo not drawn) do in these assays?
Rango dissoc inh: -16.2%; GLA inh pH 4.5: 4.1; miR-21 reporter: -1.6%; Rango complex inh: 3.0%

What do the screens show for `CN(C)c1ccc(N=Nc2ccc3ncccc3c2)cc1`?
Rango dissoc inh: 14.2%; Rango complex inh: 0.8%

Results for CC(=O)c1cccc(S(=O)(=O)N2CCCC(c3nc4c(nnn4Cc4ccc(C)cc4)c(=O)[nH]3)C2)c1 (stereo not drawn) ?
Rango dissoc inh: 0.4%; miR-21 reporter: -7.6%; Rango complex inh: 1.2%

How did COc1ccc(C(=O)NCC(=O)N/N=C(\C)Cc2ccccc2)cc1 do in these assays?
Rango dissoc inh: -3.6%; miR-21 reporter: -3.6%; Rango complex inh: -0.1%

How did C=CC[C@H](CC(=O)N[C@H](CO)Cc1ccccc1)C(=O)N[C@@H](COC(=O)[C@@H](CC=C)Cc1ccc(F)cc1)Cc1c[nH]c2ccccc12 do in these assays?
Rango dissoc inh: 1.8%; Rango complex inh: -2.5%

How did O=C(CSc1nc2c(cnn2-c2ccc(F)cc2)c(=O)[nH]1)N1CCCCC1 do in these assays?
Rango dissoc inh: -9.8%; GLA inh pH 4.5: 7.0; miR-21 reporter: -3.9%; Rango complex inh: 0.6%

How did Cc1ccc(C(=O)Nc2ccccc2C(=O)NCc2ccccc2)cc1 do in these assays?
Rango dissoc inh: 0.3%; GLA inh pH 4.5: -7.1; miR-21 reporter: -0.6%; Rango complex inh: -1.9%

Results for COc1cccc(-n2c(SCC(=O)NCC3CCCO3)nc3c(c2=O)SCC3)c1 (stereo not drawn) ?
Rango dissoc inh: -2.1%; miR-21 reporter: -0.8%; Rango complex inh: -0.1%

Results for O=S(=O)(c1cc(F)ccc1F)N1CCN2CCCC2C1 (stereo not drawn) ?
Rango dissoc inh: 0.7%; miR-21 reporter: 0.1%; Rango complex inh: -4.5%

Results for CCn1c(=N)c(S(=O)(=O)c2ccc(C)cc2)cc2c(=O)n3ccccc3nc21 ?
GLA inh pH 4.5: -3.8; miR-21 reporter: 2.0%

Results for CCCNc1nc(N2CCOCC2)nc(N2CCOCC2)n1 ?
Rango dissoc inh: 17.0%; GLA inh pH 4.5: -10.3; miR-21 reporter: -3.5%; Rango complex inh: -0.1%

Results for COc1ccc(C2=NOC3(CC(=O)N(c4ccc(Cl)cc4)C3=O)C2)c(OC)c1 (stereo not drawn) ?
Rango dissoc inh: 9.8%; GLA inh pH 4.5: 3.2; miR-21 reporter: -1.4%; Rango complex inh: inconclusive

Results for COc1ccc(CC(=O)NC(C)c2nnc(SCC(=O)Nc3ccccc3)n2C)cc1 (stereo not drawn) ?
Rango dissoc inh: -3.7%; GLA inh pH 4.5: 3.5; miR-21 reporter: -2.9%; Rango complex inh: -2.3%

Results for CCOC(=O)CCNC(=O)CCNC(=O)C(c1ccccc1)c1ccccc1 ?
Rango dissoc inh: -4.1%; GLA inh pH 4.5: -6.0; miR-21 reporter: -5.3%; Rango complex inh: -0.7%

What do the screens show for `CCN1CCc2c(sc(NC(=S)NC(=O)c3ccc(Cl)cc3)c2C(N)=O)C1`?
Rango dissoc inh: inconclusive; GLA inh pH 4.5: -12.4; miR-21 reporter: -14.2%; Rango complex inh: inconclusive

What do the screens show for `O=C(c1cc(COc2ccc(F)cc2Cl)on1)N1CCN(C2CCCC2)CC1`?
Rango dissoc inh: 5.9%; miR-21 reporter: -13.5%; Rango complex inh: -1.9%

What do the screens show for `Cc1ccc(OCCC(=O)NNC(=O)c2cc(C)oc2C)cc1`?
Rango dissoc inh: 13.5%; Rango complex inh: 7.0%

Results for O=C(CSc1nc2ccccc2o1)Nc1ccccc1N1CCCCCC1 ?
Rango dissoc inh: 11.0%; GLA inh pH 4.5: 4.1; miR-21 reporter: -7.4%; Rango complex inh: 0.2%

What do the screens show for `CN(C)S(=O)(=O)N1CCc2ccc(NC(=O)c3ccccc3Cl)cc2C1`?
Rango dissoc inh: -24.3%; miR-21 reporter: -13.7%; Rango complex inh: -0.2%

What do the screens show for `O=C(CSc1nnc(-c2ccc(F)cc2)c2ccccc12)Nc1c(F)cccc1F`?
Rango dissoc inh: -0.8%; GLA inh pH 4.5: 4.2; miR-21 reporter: -15.9%; Rango complex inh: -2.4%

How did S=c1[nH]nc(COc2ccc3c(c2)OCO3)n1-c1ccccc1 do in these assays?
Rango dissoc inh: 0.7%; GLA inh pH 4.5: -4.0; miR-21 reporter: -5.9%; Rango complex inh: -1.2%

How did COc1cccc(NC(=O)CSc2ccc3nnc(CCNC(=O)c4ccccc4)n3n2)c1 do in these assays?
Rango dissoc inh: 2.4%; miR-21 reporter: -1.9%; Rango complex inh: 2.6%

How did COc1ccc(NS(=O)(=O)c2c(F)cc(F)c(Cl)c2F)cc1S(=O)(=O)N1CCCCC1 do in these assays?
Rango dissoc inh: 27.2%; GLA inh pH 4.5: 6.0; miR-21 reporter: 15.8%; Rango complex inh: 2.6%

What do the screens show for `COc1ccc(-c2nsc3c(SCC(=O)Nc4cc(C)ccc4C)ncnc23)cc1`?
GLA inh pH 4.5: -4.7; miR-21 reporter: -0.4%

How did N#CC(C(=S)Nc1ccccc1)c1nc2ccccc2[nH]1 (stereo not drawn) do in these assays?
Rango dissoc inh: -14.8%; GLA inh pH 4.5: -9.5; miR-21 reporter: 9.8%; Rango complex inh: inconclusive

What do the screens show for `CCOC(=O)c1c(C)[nH]c(C(=O)Nc2ccc3c(c2)OCO3)c1C`?
GLA inh pH 4.5: -11.0; miR-21 reporter: -32.1%

Results for CCOC(=O)c1c(C)n(S(=O)(=O)c2ccc(C)cc2)c2ccc(O)c(C(=O)O)c12 ?
Rango dissoc inh: -0.2%; miR-21 reporter: 2.8%; Rango complex inh: 2.1%

Results for Cc1ccc(C(=O)NC2CCCCC2)cc1 ?
Rango dissoc inh: 7.9%; GLA inh pH 4.5: 3.7; miR-21 reporter: -43.1%; Rango complex inh: -0.6%

What do the screens show for `CCN1CCN(c2ncnc3c2oc2nc(C(C)C)c4c(c23)CCC4)CC1`?
GLA inh pH 4.5: -0.2; miR-21 reporter: -5.6%

How did COc1ccc(CC(=O)NC(C)c2nnc(SCC(=O)c3ccc(OC)cc3)n2C)cc1 (stereo not drawn) do in these assays?
Rango dissoc inh: 11.0%; GLA inh pH 4.5: -0.2; miR-21 reporter: 2.6%; Rango complex inh: 4.2%

What do the screens show for `Cc1ccc2c(CC(=O)NCC3COc4ccccc4O3)coc2c1` (stereo not drawn)?
Rango dissoc inh: 1.6%; GLA inh pH 4.5: 2.3; miR-21 reporter: -13.9%; Rango complex inh: -1.4%

What do the screens show for `CCOC(=O)C1CCCN(C(=O)c2cc(S(=O)(=O)N3CCCCC3)c[nH]2)C1` (stereo not drawn)?
Rango dissoc inh: 6.0%; miR-21 reporter: -1.9%; Rango complex inh: 4.0%

Results for N#Cc1cn(Cc2ccccc2)c2ccccc12 ?
Rango dissoc inh: -9.0%; GLA inh pH 4.5: -10.1; miR-21 reporter: -5.4%; Rango complex inh: 4.0%

Two records drawn at random from the list so far, as already listed:
What do the screens show for `COc1ccc(CC(=O)O/N=C(\N)c2ccccc2)cc1OC`?
Rango dissoc inh: -8.4%; miR-21 reporter: -27.7%; Rango complex inh: 0.4%

Results for CCCNc1nc(N2CCOCC2)nc(N2CCOCC2)n1 ?
Rango dissoc inh: 17.0%; GLA inh pH 4.5: -10.3; miR-21 reporter: -3.5%; Rango complex inh: -0.1%

Not all compounds are listed, so the mix of outcomes need not match the whole.
